VDR inhibitor = Inhibitors of the vitamin D receptor (VDR): qHTS | Potency, µM, inactives show max response, negative = inhibition, actives largely listed as inhibitors | VDR-SRC2-3 peptide fluorescence polarization, 2 h | hit rate 0.93% among 400,000; active = well fitted inhibition curve with a large enough effect; inconclusive = small, poorly fitted or top-dose-only effect, or another doubt; inactive = no such curve, though single readings can be large or run the other way; also: series mostly up to about 120 µM
Target sequence (P11473 whole entry, looked up): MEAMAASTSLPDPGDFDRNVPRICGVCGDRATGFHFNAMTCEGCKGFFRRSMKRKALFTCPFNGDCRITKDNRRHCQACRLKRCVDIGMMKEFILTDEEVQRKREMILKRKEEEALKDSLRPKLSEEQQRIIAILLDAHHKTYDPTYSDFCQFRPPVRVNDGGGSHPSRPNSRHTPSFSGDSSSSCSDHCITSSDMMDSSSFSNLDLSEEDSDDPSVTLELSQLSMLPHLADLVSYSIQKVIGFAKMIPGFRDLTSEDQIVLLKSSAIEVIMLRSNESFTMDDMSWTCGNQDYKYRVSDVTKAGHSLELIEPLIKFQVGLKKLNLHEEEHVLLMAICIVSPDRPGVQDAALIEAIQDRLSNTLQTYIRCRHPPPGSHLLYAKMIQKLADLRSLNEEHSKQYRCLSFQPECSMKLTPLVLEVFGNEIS
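Fluorescence polarization assay measuring small-molecule disruption of VDR binding to the coregulator peptide SRC2-3. Compounds were pin-transferred (23 nl) into the reagent mix and incubated 2 h at room temperature before reading.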
Active calls of the source: *; ? = inconclusive; [ ] = dose if it differs, or a comment. % is scaled to controls: 0 for no effect and ±100 for the full control effect; potency is read from the fitted curve at half-maximal effect.

| VDR inhibitor | compound |
| --- | --- |
| 5% | O=C(Nc1ccc(N2CCN(C(=O)c3cccs3)CC2)c(Cl)c1)c1ccco1 |
| 2% | COc1ccccc1-c1nnc(SCC(=O)O)n1-c1ccc(C)cc1 |
| -7% | COc1cc(C(=O)Nc2c(C(=O)N3CCOCC3)oc3ccccc23)cc(OC)c1OC |
| -20% | N#Cc1cn(N2CCCCC2)c(=O)[nH]c1=O |
| -1% | COc1cc(C(=O)NCC(=O)N/N=C/c2cccs2)cc(OC)c1OC |
| ? | COc1ccc(CCNC(=O)CSc2nnc(CNC(=O)c3cc(OC)c(OC)c(OC)c3)o2)cc1OC |
| 7% | CC(=O)Nc1ccc(NC(=O)CN(C)CCC#N)cc1 |
| -4% | CCc1ccccc1NC(=O)Nc1ccsc1C(=O)OC |
| -23% | CC1(C)CC2(CC(c3cccs3)c3cc(Cl)c(O)cc3O2)NC(=S)N1 (centres undefined) |
| 7% | CCC(C)NCC(O)(c1ccc(Cl)cc1)c1ccc(Cl)cc1 (centres undefined) |
| 1% | O=C(c1cnsn1)N1CCN(c2ccccn2)CC1 |
| 5% | Cc1cc(C)cc(NC(=O)c2cccnc2)c1 |
| 1% | CCCc1cc(=O)[nH]c(SCC(=O)N2CCOCC2)n1 |
| 3% | O=C(COc1ccccc1)NCCS(=O)(=O)N1CCN(c2ccccc2)CC1 |
| -11% | Cc1ccc(NC2=CC(=O)CC(C)(C)C2)c(N)c1 |
| -9% | CC(=O)N1CCOc2ccc(S(=O)(=O)NC[C@H]3O[C@@H](n4cnc5c(N)ncnc54)[C@H](O)[C@@H]3O)cc21 |
| -10% | COc1cc(CCc2ccccc2)c(C(=O)O)c(O)c1CC=C(C)C |
| 4% | Nc1cc(-c2ccc(Cl)cc2)nn1S(=O)(=O)c1ccc(Cl)cc1 |
| 13% | CC(C)(C)OC(=O)N1CCC(c2nnc(SCc3ccccc3)o2)CC1 |
| ? | CCc1c(C)[nH]n(-c2ccc(Oc3ccccc3)c(S(=O)(=O)O)c2)c1=O |
| 3% | O=[N+]([O-])c1ccccc1/C=N/NC1=NCCN1 |
| -8% | CCOc1ccccc1CNC(=O)c1ccc2nc(N3CCOCC3)sc2c1 |
| 3% | Cc1c(NC(=O)C(C)OC(=O)[C@@H](NC(=O)c2ccccc2)C(C)C)c(=O)n(-c2ccccc2)n1C (some centres undefined) |
| 0% | C/C(=C\C(=O)c1ccccc1)Nc1cccc(O)c1 |
| -12% | COc1ccccc1/C=C/C=C1\Oc2c(ccc(O)c2CN(C)C)C1=O |
| -14% | CC1=C(C(=O)Nc2ccc(Cl)cc2)C(c2ccncc2)C(C#N)=C(SCC(N)=O)N1 (centres undefined) |
| -14% | COCCN1CCn2c(nc3cc(NC(C)=O)ccc32)C1 |
| -7% | CC(C)N(Cc1nc(-c2ccc(Cl)cc2)no1)C(=O)C(c1ccccc1)c1ccccc1 |
| 2% | CCOc1ccc(NC(=O)Cc2ccc(NC(=O)N3CCCCc4ccccc43)cc2)cc1 |
| 18% | O=C(Nc1nc(-c2cc(Cl)sc2Cl)cs1)c1cccs1 |
| 8% | Cc1cc(C)c(NC(=O)Cn2ccn(-c3cccc(Cl)c3)c(=O)c2=O)c(C)c1 |
| -13% | Cc1oc(/C=N/NC(=O)CN(c2ccccc2Br)S(C)(=O)=O)cc1Br |
| ? | Cc1c(Br)c([N+](=O)[O-])nn1CC(=O)NCc1ccccc1 |
| -2% | OCC1OC(n2cnc3c(Cl)nc(Cl)nc32)C(O)C1O (centres undefined) |
| -20% | CCN(CC)CCCOC(=O)c1ccc(OC)cc1O |
| 9% | CC1(C)CC2C1CCC1(O)CC2(C)CCC1N(O)c1ccc(C(=O)NCCO)cn1 (centres undefined) |
| -10% | CCOc1cc(/C=C/C(=O)O)ccc1OCCOc1ccccc1 |
| -2% | CCOP(=O)(CN(CC)C(=O)c1ccccc1Br)OCC |
| -29% | Cc1c(Cl)cnc(NC(=O)CSc2nncs2)c1Cl |
| 10% | O=C(Cc1ccc(-c2ccccc2)cc1)NC1CCCC1 |

Ordered by number of heavy atoms (lowest first): 3 of the compounds above
| VDR inhibitor | compound |
| --- | --- |
| -11% | Cc1ccc(NC2=CC(=O)CC(C)(C)C2)c(N)c1 |
| 13% | CC(C)(C)OC(=O)N1CCC(c2nnc(SCc3ccccc3)o2)CC1 |
| 2% | CCOc1ccc(NC(=O)Cc2ccc(NC(=O)N3CCCCc4ccccc43)cc2)cc1 |

New compounds follow.
| VDR inhibitor | compound |
| --- | --- |
| -2% | CCc1ccc(NC(=O)N(C2CCCCC2)C(C)c2cccnc2)cc1 (centres undefined) |
| 3% | CC1=CC(=O)C=C(C)C1=NOC(=O)c1cccc([N+](=O)[O-])c1 |
| -1% | O=C1CC(N2CCN(C(c3ccccc3)c3ccccc3)CC2)C(=O)N1Cc1ccc(N2CCCC2=O)cc1 (centres undefined) |
| -5% | CC(=O)Nc1cccc(C(=O)OC(C(=O)c2ccc(C)cc2)c2ccccc2)c1 (centres undefined) |
| 6% | Cc1ccccc1OCc1ccc(C(=O)N2CC(C)OC(C)C2)o1 (centres undefined) |
| -7% | Cc1ccc(CN(C)C(=O)C2CCCN2C(=O)c2cccs2)o1 (centres undefined) |
| -4% | CC1(C)Cc2c(sc3nc(-c4ccccc4)oc(=O)c23)CO1 |
| 4% | Cc1ccc2c(c1)N(C(=O)Nc1cccc(C)c1C)CCO2 |
| 2% | COc1ccc(C(C(=O)NC2CCCCC2)N(C(=O)c2sc(C)nc2C)c2ccc(C(C)=O)cc2)cc1 (centres undefined) |
| 10% | CC(=O)N1CCN(C(=O)c2ccc(NS(=O)(=O)c3ccc4c(c3)OCCO4)cc2)CC1 |
| -11% | O=C(Nc1ncccc1O)c1ccc(S(=O)(=O)N2CCCCCC2)cc1 |
| 4% | CC(=O)Nc1cccc(-c2nnc(SCC(=O)c3ccc([N+](=O)[O-])cc3)o2)c1 |
| -4% | Cc1c(NC(=O)c2ccc3c(c2)C(=O)N(Cc2ccco2)C3=O)cccc1C(=O)O |
| -4% | COCCn1c(=O)c(-c2ccc(OC)cc2)nc2cnc(OCc3ccccc3)nc21 |
| -10% | O=c1oc2ccccc2c(O)c1/C=N/c1ccccn1 |
| 0% | Cc1ccc(OCC(=O)N/N=C2/SCC(=O)N2Cc2ccccc2)cc1 |
| 5% | Cc1cc(C)cc(NC(=O)CCc2c(C)nn(-c3ccc(N4CCOCC4)nn3)c2C)c1 |
| 4% | COc1ccccc1Cn1c(=S)[nH]c2cc(C(=O)N3CCN(C)CC3)ccc2c1=O |
| -16% | O=C(NNC(=O)c1ccco1)Nc1ccccc1 |
| 13% | Cn1c(-c2sccc2OCc2cccc(C(F)(F)F)c2)n[nH]c1=S |
| 4% | CCCc1nc2n[nH]c(N)c2c2c1CCCC2 |
| -7% | CCCCC[C@H]1CN(CCc2ccccc2)C(=O)[C@@H]1CC(=O)NCc1ccc(OC)cc1 |
| ? | CCC(C)NC(=O)c1ccc2c(c1)S(=O)(=O)c1ccccc1C2=O (centres undefined) |
| 2% | Brc1cc2c(cc1Br)OCCOCCOCCO2 |
| 9% | COc1ccc(CCNC(=O)CCc2c(C)c3cc4c(C)coc4c(C)c3oc2=O)cc1OC |
| -19% | CCn1c2ccccc2c2cc(NC(=O)c3cc(OC)c(OC)c(OC)c3)ccc21 |
| 3% | COc1ccc(N2C(=O)CSC23C(=O)N(Cc2ccc(C)cc2)c2ccccc23)cc1Cl (centres undefined) |
| 16% | O=C(CCNC(=O)c1ccco1)NCc1ccccc1 |
| 8% | CC(C)(C)C1CCc2onc(C(=O)N3CCOCC3)c2C1 (centres undefined) |
| -5% | COc1ccc(-n2nc(C(=O)N3CCN(c4ccc(F)cc4)CC3)c3c4ccccc4n(C)c3c2=O)cc1 |
| 8% | Cc1ccccc1C(=O)NCc1nc2cccnc2n1Cc1ccccc1 |
| -6% | NNC(=O)Cn1nnc(-c2ccc(C(F)(F)F)cc2)n1 |
| 1% | Cc1cccc(OCCn2c(S(=O)(=O)O)nc3ccccc32)c1 |
| -22% | COC(=O)c1ccc(CSc2nnc(C)n2N)o1 |
| -8% | COc1cccc(N2CC(NS(=O)(=O)c3cccs3)CC2=O)c1 (centres undefined) |
| 0% | COc1ccccc1Nc1c2c(nc3ccccc13)CCC2 |
| -19% | FC(F)(F)c1cnc(NNC(=S)Nc2cccnc2)c(Cl)c1 |
| -16% | O=[N+]([O-])c1cc(C(F)(F)F)ccc1N1CCN(S(=O)(=O)c2ccc3c(c2)CCCC3)CC1 |
| 36%[activator] | O=C(CSc1ccc(Br)c2cccc(Cl)c12)Nc1ccc(S(=O)(=O)Nc2nccs2)cc1 |
| 7% | Cc1ccc(NCC(=O)N/N=C/c2ccc(C(=O)O)cc2)cc1 |
| -3% | Cc1nnc(OC(C)C)c2nn(-c3ccccc3F)c(C)c12 |
| -16% | COc1cccc(/C=C/C(=O)OCC(=O)N2c3ccccc3NC(=O)C2(C)C)c1 |
| -8% | COc1cc(C(=S)N2CCCC2)cc(Cl)c1O |
| 0% | O=C(CCn1ccc2ccccc21)NC1CCCc2ccccc21 (centres undefined) |
| ? | CCOC(=O)C1CCN(C(=O)CC(C)c2ccccc2)CC1 (centres undefined) |
| 4% | NC1(C(=O)O)CCC1 |
| 5% | CCC(=O)Nc1ccc(-c2ccc(N3CCC(C)CC3)nn2)cc1 |
| 3% | Cc1ccc(S(=O)(=O)N(CC(=O)NCc2ccc(F)cc2)C(=O)N2CCN(C)CC2)cc1 |
| 5% | Cc1cccc(C(=O)Nc2ccc(S(=O)(=O)N3CCC(c4nc5ccccc5s4)CC3)cc2)c1 |
| -5% | COc1cccc(C2CC3(CC(C)(C)NC(=S)N3)Oc3cc(O)ccc32)c1 (centres undefined) |
| -7% | CCN(CC)c1ccc(NC(=O)CN2CCN(CC(=O)Nc3ccc(Cl)cc3)CC2)cc1 |
| 14% | Cc1cc2cc(CNC(=S)Nc3ccc(OC(F)F)cc3)ccc2n1C |
| 7% | CCOC(=O)Cn1c(=O)oc2cc(S(=O)(=O)N3CCN(c4ccc(Cl)cc4)CC3)ccc21 |
| -17% | O=C(C1CCC(=O)N(C2CCCC2)C1)N1CCC(Oc2ccccc2Cl)CC1 (centres undefined) |
| 0% | O=C(OCCOCn1cc(Br)c(=O)[nH]c1=O)c1ccccc1 |
| -25% | CCC(=O)Nc1cc(C(=O)O)ccc1Sc1ccc(C)cc1 |
| -7% | COC(=O)c1ccc(NC(=O)c2ccccc2C(=O)Nc2ccc(C(=O)OC)cc2)cc1 |
| 5% | COc1ccc(S(=O)(=O)c2cn(C)c3cc(N4CCCCCC4)c(F)cc3c2=O)cc1 |
| 4% | CCN1CCN(C(c2cccc(F)c2)c2c(O)cc(C)n(CCOC)c2=O)CC1 (centres undefined) |
| -2% | CCc1[nH]nc(C(=O)N2CCCC(CCC(=O)N3CCN(c4ccccn4)CC3)C2)c1C (centres undefined) |

More records:
| VDR inhibitor | compound |
| --- | --- |
| -15% | CCOc1ccc(C2C(C(=O)OC)=C(C)NC3=C2C(=O)c2ccccc23)cc1OC (centres undefined) |
| 3% | COc1cc2[nH]c(O)c(C=O)c2cc1OC |
| 10µM* | CCCCS(=O)(=O)c1oc(-c2cccs2)nc1S(=O)(=O)c1ccc(F)cc1 |
| -9% | CCCc1n(CC(O)COCC2CC=CCC2)c2ccccc2[n+]1C (centres undefined) |
| 13% | O=c1[nH]c(C2CCN(S(=O)(=O)c3ccc4c(c3)OCCO4)CC2)nc2c1nnn2Cc1ccccc1F |
| 0% | COc1cccc(C(=O)NC2CC(C)(C)NC(C)(C)C2)c1OC |
| -1% | O=C(Nc1cccc(F)c1)N1CC2(CCN(C(=O)c3cccc(F)c3)CC2)C1 |
| -3% | CCCCCN(C(=O)CCC(=O)OCC(=O)Nc1ccc(C)cc1F)c1c(N)n(CCCC)c(=O)[nH]c1=O |
| 12% | N#C/C(=C1/CCCCCN1)c1nc2ccccc2[nH]1 |
| -8% | Cc1ccc(S(=O)(=O)N2[C@@H](c3ccc(C(C)(C)C)cc3)C(C(=O)O)=CC[C@H]2c2cccs2)cc1 |
| 15% | Cc1ccc(C(C)C)c(OCC(=O)Nc2sc3c(c2C#N)CC(C)(C)NC3(C)C)c1 |
| -11% | COc1cc(O)c(C=Nc2ccccc2NS(=O)(=O)c2ccc(C)cc2)c(OC)c1 |
| 7% | Cc1oc(-c2cccc(Cl)c2)nc1CS(=O)(=O)CC(=O)NCc1ccco1 |
| 8% | CCOCC(=O)Nc1c(C(=O)Nc2ccccc2OC)oc2ccccc12 |
| -21% | Cc1ccc(NC(=O)c2nc[nH]c2C(=O)N[C@@H](C)c2ccccc2)cc1 |
| -3% | CCc1ccc(NC(=O)COC(=O)Cn2cnc3ccccc32)cc1 |
| -11% | CSCC[C@H](NC(=O)[C@H](Cc1ccc(OS(=O)(=O)O)cc1)NC(=O)[C@@H](N)CC(=O)O)C(=O)NCC(=O)N[C@@H](Cc1c[nH]c2ccccc12)C(=O)N[C@@H](CCSC)C(=O)N[C@@H](CC(=O)O)C(=O)N[C@@H](Cc1ccccc1)C(N)=O |
| -3% | CN(CC(=O)Nc1ccccc1Cl)C(=O)Cn1cnc2ccc(Cl)cc2c1=O |
| 11% | Cc1ccc(C(=O)N/C(=C/c2ccco2)C(=O)N2CCCCC2)cc1 |
| -3% | C=CCNC(=O)c1ccc(CSc2nc3ccccc3s2)cc1 |
| 32%[activator] | O=C(CN1C(=O)NC2(CCCCCC2)C1=O)NCc1ccccc1Cl |

Structures from the list above containing a cyano group, in the order listed:
| VDR inhibitor | compound |
| --- | --- |
| -20% | N#Cc1cn(N2CCCCC2)c(=O)[nH]c1=O |
| 7% | CC(=O)Nc1ccc(NC(=O)CN(C)CCC#N)cc1 |
| -14% | CC1=C(C(=O)Nc2ccc(Cl)cc2)C(c2ccncc2)C(C#N)=C(SCC(N)=O)N1 (centres undefined) |
| 12% | N#C/C(=C1/CCCCCN1)c1nc2ccccc2[nH]1 |
| 15% | Cc1ccc(C(C)C)c(OCC(=O)Nc2sc3c(c2C#N)CC(C)(C)NC3(C)C)c1 |

Compound activity (PubChem)

Some of the compounds tested; count on the stated rates, not on these rows.
